Vif A3G: HIV-1 Vif–A3G interaction blockers – biochemical, TR-FRET, GST-Vif 1-94, biotin-A3G peptide, dose response retest, primary screen (AID 1117319); 260,000 compounds, 0.57% hits; inhibition, %; hits with a dose series show IC50 in µM; TR-FRET GST-Vif / biotin-A3G peptide binding; higher % means a stronger effect; test concentration not given here; strong numbers were not always called active;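 active means above the screen mean plus three standard deviations and confirmed in dose response; inconclusive means results disagree or hit not tested in dose response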;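 further: Vif residues 1-94 fused to GST binding biotinylated APOBEC3G peptide 110-148; 0% = full assay without inhibitor and 100% = GST in place of GST-Vif; retest series ran down from 100 µM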
Ecoli growth: inhibitors of Escherichia coli growth; OD600, 23 h; active compounds read low; OD600 absorbance (test concentration not listed); 330,000 compounds, 0.21% hits; AID 1053175;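 active means OD600 absorbance below the run mean of sample wells minus 3.6 SD, in any replicate, cut at about 0.56 in these data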;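 further: stock transfer was 300 nL into about 60 µL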
Ecoli rRNA inh: inhibitors of bacterial rRNA selective over humanized ribosomes. 350,000 compounds, 1.6% hits. GFP signal change (wild-type ribosome), % (test concentration not listed). E. coli WT GFP vs humanized-ribosome RFP mutants, fluorescence, 24 h; active compounds read low; DMSO median 0, no signal -100;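 active means significant combined selectivity score with lowered wild-type GFP, culture density cut under 30%, mutant RFP and density less affected; inactive means any of these conditions unmet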; further: one replicate is shown; some compounds called inactive have numbers as strong as hits
FGF22 binding: FGF22 (human) thermal shift binding | 340,000 compounds, 1.5% hits | AID 651658 | calls only at 9.99 µM | Q9HCT0 | recombinant FGF22 thermal shift, SYPRO orange fluorescence; percent of sucrose octasulfate shift, DMSO zero;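 active means melting point raised past a set limit in the mean and every replicate; inconclusive means no clear call; three in four hits are not shown here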
Target sequence (Q9HCT0 whole entry, looked up): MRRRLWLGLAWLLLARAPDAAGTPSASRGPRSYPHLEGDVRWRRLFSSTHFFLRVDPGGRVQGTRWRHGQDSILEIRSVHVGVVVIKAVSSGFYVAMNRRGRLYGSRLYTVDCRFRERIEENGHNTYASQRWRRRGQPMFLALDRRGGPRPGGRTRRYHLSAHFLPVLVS
ALR H2O2 inh: human ALR oxidase inhibition via reduced H2O2 | P55789 | purified ALR, DTT oxidation, H2O2 HRP-luminol luminescence | inhibition, % (test concentration not listed) | 290,000 compounds, 3.8% hits | AID 485317;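 active means mean and each replicate at 75% or more; inconclusive means only one of the two met; inactive means neither met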;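 further: stock transfer was 7.5 nL into about 7.5 µL; 0% = neutral wells and 100% = wells with inactivated enzyme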
Target sequence (P55789 whole entry, looked up): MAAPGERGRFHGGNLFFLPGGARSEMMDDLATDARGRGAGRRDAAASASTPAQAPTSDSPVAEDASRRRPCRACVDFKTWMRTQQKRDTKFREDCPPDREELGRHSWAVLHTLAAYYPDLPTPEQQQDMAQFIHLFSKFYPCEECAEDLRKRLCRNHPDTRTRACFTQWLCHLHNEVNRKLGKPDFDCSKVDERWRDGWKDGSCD
MLL AF4-AF9 inh: blocks AF4 peptide binding to human AF9 | AlphaScreen, biotin-AF4 peptide binding to FLAG-AF9 | inhibition, % at 10 µM | 350,000 compounds, 0.47% hits;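 active means every replicate reaching a set inhibition limit, whatever the replicate mean, cut at about 25% in these data; inconclusive means mean inhibition reaches that limit but some replicates miss it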;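 further: 0% = plate neutral control median and 100% = total signal loss; the record names both 10 and 1 µM as test concentration; the first replicate is given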
HNF4A DNA FP: change in binding of human HNF4 alpha to DNA | HNF4a-FITC DNA binding, fluorescence polarization, 1 h | activity change, % at 10 µM | P41235 | AID 1224865 | 360,000 compounds, 0.3% hits; in the data active means activity change above about 30%, passing the limit was not always enough;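 further: controls were the assay level and a saturating level of protein; the project sought stronger binding though the title names inhibitors; some compounds called inactive have numbers as strong as hits; positive values seem to mean higher polarization but the record does not say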
Target sequence (P41235 whole entry, looked up): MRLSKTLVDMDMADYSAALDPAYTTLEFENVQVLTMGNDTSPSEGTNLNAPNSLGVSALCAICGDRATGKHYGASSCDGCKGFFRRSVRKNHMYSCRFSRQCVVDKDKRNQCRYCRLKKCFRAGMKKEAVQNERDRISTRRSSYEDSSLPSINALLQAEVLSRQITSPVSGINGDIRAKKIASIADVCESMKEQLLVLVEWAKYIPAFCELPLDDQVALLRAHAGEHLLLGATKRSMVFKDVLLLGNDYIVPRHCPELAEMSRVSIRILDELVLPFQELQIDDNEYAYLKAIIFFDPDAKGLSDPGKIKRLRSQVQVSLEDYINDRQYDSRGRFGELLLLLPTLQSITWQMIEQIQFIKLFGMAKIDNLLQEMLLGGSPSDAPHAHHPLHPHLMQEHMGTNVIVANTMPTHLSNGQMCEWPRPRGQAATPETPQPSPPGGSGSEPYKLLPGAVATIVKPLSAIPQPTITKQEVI
Ecoli rRNA inh OD600: second read-out of Ecoli rRNA inh, no call of its own (marks repeat the call); OD600 change, %; measured here: OD600 growth;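 optical density of the mix in the first replicate; 0 = DMSO median and -100 = no signal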
Ecoli rRNA inh RFP: further read-out of Ecoli rRNA inh, marked with its call; RFP signal change, %; measured here: RFP humanized mutant strains;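 first replicate; 0 = DMSO median and -100 = no signal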
Active calls of the source: *; i = inactive; ? = inconclusive; · = not tested or not shown; + = active, no number; & = joins results of further samples. These rows are one share of the data, so the mix of outcomes need not match the whole.

SMILES	Vif A3G	Ecoli growth	Ecoli rRNA inh	Ecoli rRNA inh OD600	Ecoli rRNA inh RFP	FGF22 binding	ALR H2O2 inh	MLL AF4-AF9 inh	HNF4A DNA FP
CCOc1ccc2c(c1)c(=O)c(S(=O)(=O)c1ccc(CC)cc1)cn2C	·	0.7	4	18	-1.9	i	-3	0.1	10
O=C(c1cccnc1)C1CCCN(Cc2nc(Cc3ccccc3)no2)C1 (stereo not drawn)	4%	0.73	-4	-3	-0.7	i	1	2.5	1.8
COc1ccc(S(=O)(=O)Nc2cccc3c2O[C@H](CN(C)S(=O)(=O)c2ccc(OC)cc2)[C@@H](C)CN([C@@H](C)CO)C3=O)cc1	·	·	0	-6	-0.4	i	·	2.2	·
COc1cc(/C=C/C(=O)OCC(=O)N(C)Cc2ccccc2)ccc1O	-3%	0.67	·	·	·	i	·	-0.4	-2.1
O=C(Nc1ccc(F)cc1)N1C[C@H]2[C@@H](c3ccccc31)[C@@H](CO)N2Cc1ccccc1	·	·	-12	-15	-0.2	i	·	0.3	·
Clc1ccccc1Sc1ccc(-c2ccccn2)s1	-2%	0.63	-13	0	-1.6	i	-5	3.9	2.1
N#C[C@@H]1[C@H](c2ccc(-c3cccnc3)cc2)[C@H](CO)N1C(=O)Nc1ccc(F)cc1	·	·	-2	-14	1.3	+	·	-7.1	·
Cc1noc(C)c1NC(=O)Nc1ccc2c(c1)C(=O)N([C@H](C)CO)C[C@H](C)[C@@H](CN(C)C(=O)NC(C)C)O2	·	·	3&22	9&11	-3.2&-2.7	i	·	-1.3&-11	2.1
Cc1[nH]n(-c2ccccc2)c(=O)c1C=Nc1cccc2cccnc12	·	0.68	·	·	·	·	-13	·	-0.6
O=C1/C(=C/c2cccnc2)SC(=S)N1C1CCS(=O)(=O)C1 (stereo not drawn)	3%	0.68	·	·	·	·	-5	·	3.0
CN1C(=O)c2cc(NC(=O)Cc3ccccc3)ccc2OC[C@H]2O[C@H](CC(=O)NCC3CC3)CC[C@@H]21	·	·	1	3	0.6	i	·	-2.5	·
C[C@@H]1COC(=O)[C@@H](CC(=O)OC(C)(C)C)C/C=C\C[C@@H](CC(=O)N[C@@H](CO)Cc2ccccc2)C(=O)N1	·	·	-1	8	0.0	i	-6	-3.2	11
Cc1c(C(=O)OCCOC(C)C)[nH]c2c1C(=O)CC(c1ccco1)C2 (stereo not drawn)	27%	0.72	·	·	·	·	·	·	-8.3
CN(Cc1ccc(CNC[C@H]2O[C@@H](n3cnc4c(N)ncnc43)[C@H](O)[C@@H]2O)o1)S(C)(=O)=O	1%	0.7	0	4	-1.3	i	·	-0.5	0.7
Nn1c(SCC(=O)Nc2ccc(N3CCOCC3)cc2)nnc1C1CC1	·	0.67	7	18	2.1	i	99*	-5.0	4.3
CC(C)(C)NC(=O)CN(Cc1cccs1)C(=O)c1csnn1	9%	0.73	·	·	·	·	-4	·	-1.9
CC(NC(=O)c1ccco1)C(=O)OCc1cccc(C(F)(F)F)c1 (stereo not drawn)	·	0.69	0	3	0.2	i	-7	2.4	2.0
O=C(C[C@H]1C/C=C\C[C@@H](Cc2ccc(F)cc2)C(=O)OC[C@H]2CCCN2C1=O)NCCO	·	·	4	8	10	i	-3	-1.4	1.2
COc1ccnc2c1c(=O)n(Cc1ccc(F)cc1)c(=O)n2C	-7%	0.69	0	2	-1.4	i	·	-1.4	-4.5
C[C@@H]1CCCCO[C@@H](CN(C)C(=O)NC2CCCCC2)[C@H](C)CN([C@@H](C)CO)C(=O)c2cc(NS(=O)(=O)c3ccc(Cl)cc3)ccc2O1	·	·	6	2	2.0	i	·	-3.1	·
CC1CC2=C(C(=O)O1)C(C)Nc1ccccc1N2 (stereo not drawn)	0%	0.71	4	6	3.2	i	·	-23	0.5
Cc1nc2ccccc2c(=O)n1NC(=O)/C=C/c1ccccc1Cl	-2%	·	-21	-20	-5.4	i	-3	-4.3	-1.3
CC(C)(C)OC(=O)N1CC(O)CC1C(=O)OCC(=O)c1ccccc1 (stereo not drawn)	19%	0.68	·	·	·	·	10	·	0.1
O=C(Nc1ccccc1C(=O)NC(Cc1c[nH]c2ccccc12)C(=O)O)c1ccco1 (stereo not drawn)	65%	0.76	·	·	·	·	-4	·	0.7
O=C(CN1C(=O)S/C(=C\c2ccc(-c3cc(C(=O)O)ccc3Cl)o2)C1=O)Nc1ccc2c(c1)OCO2	·	·	0	-3	4.7	i	-14	-2.3	-53
Cc1cc(C)cc(N2CCCn3c2nc2c3c(=O)n(CCN3CCOCC3)c(=O)n2C)c1	2%	0.69	1	-3	0.8	·	5	·	-1.5
Cc1ccc(-c2nnn(CC(=O)N(Cc3ccc(F)cc3)C(C(=O)NC3CCCC3)c3ccncc3)n2)o1 (stereo not drawn)	3%	0.71	·	·	·	·	3	·	-1.6
CO[C@H]1CN(C)C(=O)c2ccc(NS(C)(=O)=O)cc2OC[C@H](C)N(Cc2nccs2)C[C@H]1C	·	·	-3	-4	1.6	i	·	-2.0	·
COC(=O)[C@]1(C)N[C@H](CN(C)S(=O)(=O)c2ccc(C(C)(C)C)cc2)[C@@H]2C(=O)N(C)C(=O)[C@@H]21	4%	0.7	-25*	0.0*	-2.2*	i	·	3.8	1.8
CCc1cccc2c(C(=O)CN3C(=O)NC4(CCc5ccccc54)C3=O)c[nH]c12 (stereo not drawn)	-3%	0.68	9	1	-4.9	i	12	-0.9	4.4
COc1ccc(Cc2nc3ccc(C(=O)NCc4cc(C)no4)cc3o2)cc1OC	·	0.74	7	12	1.6	i	-5	-0.2	4.1
COc1ccc(Cl)cc1NC(=O)C12CCC(C)(C(=O)O1)C2(C)C (stereo not drawn)	4%	0.69	·	·	·	·	-1	·	-1.0
O=C(NN/C(=N/S(=O)(=O)c1ccc(Cl)cc1)c1ccccc1)c1ccc(O)cc1	1%	0.67	·	·	·	·	46	·	0.6
CN(CC(=O)OCC(=O)NCC(F)(F)F)S(=O)(=O)c1ccc(Cl)cc1	-7%	0.66	8	6	-0.9	i	-2	-3.0	2.6
CC(=O)Nc1ccc(S(=O)(=O)NC(CSc2ccc(C(=O)O)cc2[N+](=O)[O-])C(=O)O)cc1 (stereo not drawn)	9%	0.66	10	4	-6.8	i	-15	-3.7	-1.8
C/C=C/c1cnc2c(c1)C(=O)N([C@H](C)CO)C[C@H](C)[C@H](CN(C)C(=O)C1CCCCC1)O2	·	·	1	0	-2.7	i	·	14	·
O=C(C[C@H]1C=C[C@H](NC(=O)C2CCC2)[C@@H](CO)O1)NCc1ccccc1Cl	·	·	3	-2	-2.0	i	·	-10	·
C/C(=N\O)C1(C)N(O)C(C)(C)C(c2ccc(F)cc2)=[N+]1[O-] (stereo not drawn)	-2%	·	·	·	·	·	5	·	0.0
CCOc1ccc(C(=O)NC(=S)N2CCN(c3ccc(C(F)(F)F)cc3[N+](=O)[O-])CC2)cc1	·	0.73	·	·	·	·	1	·	1.4
Cc1ccc(C)c(-n2c(CNC(=O)c3ccco3)nnc2SCC(=O)N2CCc3ccccc32)c1	1%	0.75	·	·	·	·	-23	·	1.5
CC(C)(C)[S@@](=O)N1Cc2cc(C(=O)N3CCc4ccccc4C3)nc(-c3cccc(-c4cncnc4)c3)c2[C@H]1CCO	·	·	-1	0	6.2	i	·	-5.2	·
CSc1ncc(CN2CCN(CC=C(C)C)C(CCO)C2)cn1 (stereo not drawn)	18%	0.71	11	16	0.7	i	6	-13	3.3
COCc1ccc(C(=O)N2CCCC(C(=O)c3cc(F)ccc3F)C2)s1 (stereo not drawn)	-5%	0.7	-10	-19	-6.6	i	-3	-1.6	-3.9
Cc1cc(/C=C2\C(=N)N3N=C(c4ccco4)SC3=NC2=O)c(C)n1Cc1ccccc1	?	·	-24	-20	7.4	·	-11	-6.5	-12
COCC#Cc1cnc2c(c1)C(=O)N([C@@H](C)CO)C[C@@H](C)[C@H](CN(C)C(=O)NC1CCCC1)O2	·	·	0	-10	1.9	i	·	?	·
CCOC(=O)c1[nH]cnc1C(=O)Nc1ccc(Cl)cc1	18%	0.68	7	5	0.7	i	4	-1.0	-3.4
COc1ccc(Cl)cc1NC(=O)c1ccco1	-3%	0.72	·	·	·	·	-2	·	1.6
CCCCn1nnnc1C(c1cc2ccccc2o1)N(C)Cc1ccc(Cl)c(Cl)c1 (stereo not drawn)	·	·	13	10	2.4	i	·	-2.1	-3.8
O=C1NCCOC(=O)[C@@H](Cc2ccc(F)cc2)C/C=C\C[C@@H]1CC(=O)N(CCO)Cc1ccccc1	·	·	-6	-11	8.5	i	-3	2.7	1.9
CN(C(=O)C1CCC(=O)N(Cc2cccc(F)c2)C1)C1CCCCC1 (stereo not drawn)	·	0.7	5	2	-4.2	i	0	-0.9	0.9
CCOC(=O)c1c(-c2cccs2)csc1NC(=O)CN1CC(C)OC(C)C1 (stereo not drawn)	1%	0.74	·	·	·	·	22	·	-1.0
Cc1ccc(C(=O)NNC(=O)c2ccc3c(c2)OCCO3)cc1	·	0.67	-4	7	0.0	i	1	-11	-4.1
CC[C@]12c3[nH]c4ccccc4c3CCN1C(=O)C(CC(=O)NCCCn1ccnc1)C[C@@H]2C(=O)N1CCN(C(=O)c2ccco2)CC1 (stereo partly drawn)	0%	0.67	20	8	2.5	i	4	-1.7	1.7
O=C(NCc1cccnc1)c1ccc2nc([C@@H]3O[C@H](CO)[C@H](O)[C@H](O)[C@H]3O)[nH]c2c1	·	·	10	17	0.7	i	·	0.2	-1.2
COC(=O)c1c(-c2ccc(S(C)(=O)=O)cc2)sc2cc(OC)ccc12	·	0.66	6	9	-7.2	i	-1	-2.6	0.4
Cc1cccc(NC(=O)c2sc(NC(=O)c3ccco3)c(C#N)c2C)c1C	8%	0.65	·	·	·	·	-9	·	4.1
COc1cccc(NC(=O)CN(C)S(=O)(=O)c2ccc3c(c2)n(C)c(=O)c(=O)n3C)c1	-1%	0.65	6	14	-4.2	i	1	-4.8	0.7

With a hit mark in FGF22 binding, among the entries above:
SMILES	Vif A3G	Ecoli growth	Ecoli rRNA inh	Ecoli rRNA inh OD600	Ecoli rRNA inh RFP	FGF22 binding	ALR H2O2 inh	MLL AF4-AF9 inh	HNF4A DNA FP
N#C[C@@H]1[C@H](c2ccc(-c3cccnc3)cc2)[C@H](CO)N1C(=O)Nc1ccc(F)cc1	·	·	-2	-14	1.3	+	·	-7.1	·

Single records (already shown). Order of screens: Vif A3G | Ecoli growth | Ecoli rRNA inh | Ecoli rRNA inh OD600 | Ecoli rRNA inh RFP | FGF22 binding | ALR H2O2 inh | MLL AF4-AF9 inh | HNF4A DNA FP
Entry for `COC(=O)[C@]1(C)N[C@H](CN(C)S(=O)(=O)c2ccc(C(C)(C)C)cc2)[C@@H]2C(=O)N(C)C(=O)[C@@H]21` → 4% | 0.7 | -25* | 0.0* | -2.2* | i | · | 3.8 | 1.8
Entry for `C/C=C/c1cnc2c(c1)C(=O)N([C@H](C)CO)C[C@H](C)[C@H](CN(C)C(=O)C1CCCCC1)O2` → · | · | 1 | 0 | -2.7 | i | · | 14 | ·
Entry for `COCC#Cc1cnc2c(c1)C(=O)N([C@@H](C)CO)C[C@@H](C)[C@H](CN(C)C(=O)NC1CCCC1)O2` → · | · | 0 | -10 | 1.9 | i | · | ? | ·
Entry for `CSc1ncc(CN2CCN(CC=C(C)C)C(CCO)C2)cn1` (stereo not drawn) → 18% | 0.71 | 11 | 16 | 0.7 | i | 6 | -13 | 3.3
